miR-21 reporter: raises the signal of a miR-21 reporter; HeLa miR-21 FLuc reporter, luciferase, 48 h; Potency, µM (top dose mostly 38.3 µM), for the others: at the top dose reporter change, positive = more light; 340,000 tested, under 10 active; AID 2288; active = well fitted rising curve with a large enough effect; inconclusive = small, poorly fitted or top-dose-only effect; inactive = no such curve, though single readings can be large or run the other way;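 further: % of control where 0% means no effect; miR-21 action dims this reporter so a rising signal means less miR-21 action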
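HeLa cells endogenously expressing miR-21, stably carrying CMV-driven firefly luciferase with a downstream miR-21 binding site, 2000 cells/well. Titrations up to approximately 40 uM, 48 hours; luciferase luminescence read.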
* hit, by the source's call; ? = inconclusive. This is a subset; count on the stated rates, not on these rows.

SMILES	miR-21 reporter
O=C(NC1CC(=O)N(c2ccc(Cl)cc2)C1)c1cccs1 (stereo not given)	5.2%
CCc1cccc(C)c1NC(=O)CSc1nnc(CC)n2c1cc1occc12	-6.4%
Cc1ccc(-n2c(SCc3nc(-c4ccc(Cl)cc4)no3)nnc2-c2ccncc2)cc1	0.7%
CCN(C(=O)NCc1noc2ccccc12)c1cc(C)ccc1C	2.0%
CCn1cc(C(=O)OCC(=O)Nc2cccc(Cl)c2C)c(=O)c2ccc(C)nc21	-1.9%
CCOc1ccc2c(c1)c(=O)c(C(=O)c1ccc(C)cc1)cn2Cc1ccccc1OC	-2.3%
COc1ccc(C(=O)NCC(c2ccco2)S(=O)(=O)c2cccs2)cc1OC (stereo not given)	11.1%
CCOC(=O)c1c(S(=O)(=O)NCC(=O)Nc2ccc(Cl)c(C(F)(F)F)c2)c(C)n(C)c1C	4.0%
CCCCN1CC(c2nc3ccccc3n2CCCCOc2c(C)cccc2C)CC1=O (stereo not given)	-38.6%
COC(=O)c1cc(NC(=O)CCS(=O)(=O)c2cc(Br)cc3c2N(C(=O)C2CC2)CC3)cc(C(=O)OC)c1	3.4%
CCc1ccc(OC(=O)CSc2nnc(-c3ccc4c(c3)OCO4)o2)cc1	1.7%
Cc1[nH]c(=O)[nH]c(=O)c1S(=O)(=O)Nc1cccc(Cl)c1C	1.5%
CC(C)COc1ccc(C(=O)N2CCN(CCc3ccccn3)CC2)cc1	-3.6%
COc1ccc(CNC(=O)c2ccc3c(c2)N(Cc2ccccc2F)C(=O)c2ccccc2S3(=O)=O)cc1	0.0%
CCc1ccc(CN(Cc2ccco2)C(=O)COc2ccccc2Cl)cc1	?
CCN(CC)C(=O)CSc1nnc2ccc3ccccc3n12	-22.2%
Cc1ccc(-c2nc(CS(=O)(=O)CC(=O)NCc3ccccc3Cl)c(C)o2)cc1	3.0%
CC(C)(C)c1ccc(C(=O)NCC(c2cccs2)S(=O)(=O)c2ccccc2)cc1 (stereo not given)	29.1%
CCOc1ccc2nc(Cl)c(C3CC(c4ccc(OC)cc4)=NN3S(C)(=O)=O)cc2c1 (stereo not given)	-0.5%
Cc1cccc(-c2cc(C(=O)O)c3c(-c4ccc(F)cc4)[nH]nc3n2)c1	-20.4%
COc1ccccc1-c1nn(CCC(=O)Nc2ccccc2)c2nc(C)cc(C)c12	20.7%
CCOC(=O)c1[nH]c(C)c(CCC(=O)NCc2ccc(OC)cc2)c1C	-2.2%
Cc1cc(=O)c2cc(C(=O)Nc3ccc(F)cc3)ccc2[nH]1	-1.4%
O=c1c2sc3ccccc3c2n(Cc2cccc(Cl)c2)c(=O)n1Cc1ccc(F)cc1	-4.4%
COc1ccc(-n2c(=O)c3c(c4cc(OC)ccc4n3C)n(Cc3cccc(OC)c3)c2=O)cc1	-5.9%
CCc1ccccc1NC(=O)Cn1c(=O)n(C(C)C)c(=O)c2oc3ccccc3c21	-0.3%
Cc1ccc(OCC(=O)Nc2ccccc2C(=O)OCc2cc(=O)n3ccsc3n2)cc1C	-4.9%
COc1ccc(N2CCN(Cc3nnc(-c4cccc(Br)c4)o3)CC2)cc1	0.7%
COc1ccccc1C(=O)Nc1cccc(C(=O)OCc2cc(=O)n3nc(C)sc3n2)c1	-13.1%
CCCCCCOc1ccc(C2C(=O)N(C3CCCCC3)CC(=O)N2CCC)cc1 (stereo not given)	15.8%
Cc1cc(C)cc(-n2ccnc2SCC(=O)Nc2ccc3c(c2)OCO3)c1	-5.9%
O=C(Nc1ccc(Br)cc1)c1ccc(Cl)c(S(=O)(=O)N2CCCCCC2)c1	5.6%
Cc1nc(-c2ccc(S(=O)(=O)NCc3ccc(N(C)C)cc3)cc2)co1	-0.5%
COc1ccc(Cn2ccnc2SCC(=O)Nc2nc3ccccc3s2)cc1	2.2%
Cc1ccc(NC(=O)c2ccc3c(c2)NC(=O)c2ccccc2S3)c(Cl)c1	25.6%
O=C(c1ccc2c(c1)CCCC2)N1CCN(c2nc3ccc(F)cc3s2)CC1	-14.2%
COc1ccc2nc3oc(C(=O)N(C)c4ccc(Cl)cc4)cc3cc2c1	-10.8%
O=C(CSc1nc2cc(C(=O)NC3CCCC3)ccc2c(=O)n1CC1CCCO1)c1ccc(F)cc1 (stereo not given)	-1.0%
Cc1cccc(NC(=O)c2c(C)cc(C)nc2SCC(=O)Nc2c(C)cc(C)cc2C)c1	3.2%
COc1ccc(NC(=O)Cn2c(=O)n(CC3CCCO3)c(=O)c3ccccc32)cc1 (stereo not given)	-1.7%
COc1ccc(CCNc2nc(SCc3ccc(F)cc3)nc3ccccc23)cc1OC	?
CCCCn1c(=O)c2oc3ccccc3c2n(Cc2ccccc2C)c1=O	-2.6%
Cc1ccc(C)c(N2CCN(C(=O)c3cc4c(=O)oc5ccccc5c4s3)CC2)c1	-0.7%
Cc1cccc(N2CCN(Cc3nnc(-c4cccc(Br)c4)o3)CC2)c1C	-0.3%
COc1ccccc1CCNC(=O)Cc1c(C)c2ccc(O)cc2oc1=O	-6.8%
Cc1cc(Cl)ccc1OCC(=O)N1CCC(c2nc3ccccc3s2)CC1	2.1%
COc1ccc(NC(=O)CSc2nc3c(oc4ccccc43)c(=O)n2-c2ccccc2)cc1OC	0.0%
O=C(NCCCO)C(=O)NCC(c1ccc2c(c1)OCO2)N1CCOCC1 (stereo not given)	-4.2%
Cc1cc(N2CCN(c3cccc(C(F)(F)F)c3)CC2)n2nc(-c3ccccc3C)nc2n1	-0.7%
Cc1ccc2oc(-c3ccc(Cl)c(NC(=O)c4ccc(-c5ccccc5[N+](=O)[O-])o4)c3)nc2c1	-39.3%
CCc1ccc(NC(=O)CCn2cnc3ccccc3c2=O)cc1	-25.6%
O=C(Nc1ccc(F)cc1)c1ccc2c(c1)NC(=O)c1ccccc1S2	28.3%
CCOc1ccc(C(=O)NCC(c2ccc3c(c2)OCO3)N2CCN(c3ccc(F)cc3)CC2)cc1 (stereo not given)	16.2%
Cc1cccc(C(=O)Nc2cccc(OCc3cc(=O)n4cc(C)sc4n3)c2)c1	-3.5%
CCc1ccc(C(=O)c2cn(CC(=O)Nc3ccc(OC)cc3OC)c3ccc(CC)cc3c2=O)cc1	2.6%
CCOC(=O)c1c(-c2ccc(C)cc2)csc1NC(=O)c1cc(-c2ccc(C)c(F)c2)on1	-2.3%
COc1ccc(C2CC(=O)c3c(C)nc(N4CCN(C=O)CC4)nc3C2)c(OC)c1 (stereo not given)	?
Cc1nc2c(C(=O)NCCc3ccccc3)c[nH]n2c(=O)c1Cc1ccc(F)cc1Cl	-0.1%
CCCCN(C)CCNC(=O)c1c2c(nc3ccccc13)C(=O)N(C1CCCCC1)C2	7.7%
CC(CNC(=O)c1ccc(CSc2nc3ccncc3n2Cc2cccc(F)c2)cc1)c1ccccc1 (stereo not given)	21.0%

Three entries already listed, ordered by their value in miR-21 reporter, falling:
SMILES	miR-21 reporter
O=C(Nc1ccc(F)cc1)c1ccc2c(c1)NC(=O)c1ccccc1S2	28.3%
CCc1ccc(C(=O)c2cn(CC(=O)Nc3ccc(OC)cc3OC)c3ccc(CC)cc3c2=O)cc1	2.6%
COc1ccccc1CCNC(=O)Cc1c(C)c2ccc(O)cc2oc1=O	-6.8%

Other entries follow:
SMILES	miR-21 reporter
CCCCOC(=O)CSc1ncnc2sc3c(c12)CCC(C)C3 (stereo not given)	-0.4%
COC(=O)CSc1ncc2c(n1)-c1ccccc1N(Cc1ccccc1C)S2(=O)=O	-4.1%
Cc1ccc(NC(=O)Cn2cc(C(=O)c3ccco3)c3ccccc32)c(C)c1	0.3%
Cc1ccc(CNC(=O)c2ccc(-c3nc(CN4CCc5ccccc54)c(C)o3)cc2)cc1	10.5%
Cc1ccc(S(=O)(=O)Nc2cc3c(cc2NCc2ccccc2)n(C)c(=O)n3C)c(C)c1	-49.3%
CN(Cc1ccccc1)S(=O)(=O)c1cc(Br)cc2c1N(C(=O)C1CC1)CC2	?
O=C(c1ccc(CS(=O)(=O)c2c(Cl)cccc2Cl)o1)N1CCN(c2ccccc2)CC1	-1.8%
COc1cc(OC)c(N(C)C(=O)c2cc3c(=O)oc4ccccc4c3s2)cc1Cl	-0.6%
CCOC(=O)Cn1nc(C)c(NC(=O)COc2ccc(Cl)cc2C)c1C	15.4%
COc1cccc(C(=O)Nc2ccc3nc4n(c(=O)c3c2)CCCCC4)c1	-22.7%
O=c1cc2nc(-c3ccccc3)nc(SCCOc3ccc(Cl)cc3)n2[nH]1	-33.1%
CCCCC(=O)Nc1c(C(=O)N2CCN(c3ccccc3F)CC2)oc2ccccc12	20.9%
COc1ccc(OC)c(NC(=O)Cn2c(=O)n(-c3ccc(Cl)cc3)c(=O)c3c(C)c(C)sc32)c1	1.1%
Cc1cccc(-n2ncc(C(=O)N3CCN(C4CCCCC4)CC3)c2C2CCN(C(=O)OC(C)(C)C)CC2)c1	25.4%
Cc1cccc(C)c1Nc1sc(C(=O)c2ccccc2)c(N)c1C(=O)Nc1ccc(F)cc1	14.9%
COc1cccc(C2C(C(=O)Nc3ccc(C)cc3C)=C(C)Nc3nc4ccccc4n32)c1OC (stereo not given)	-0.8%
CCOC(=O)c1ccc2c(c1)[C@@H]1C=CC[C@@H]1[C@H](c1cccc(OC)c1OC)N2	-32.1%
CCOC(=O)c1cnc2cc(C(F)(F)F)ccc2c1Nc1ccc(F)cc1F	-13.4%
Cn1cnc(S(=O)(=O)N2CCC(C(=O)NCc3ccc(Cl)cc3)CC2)c1	2.2%
Cc1ccc(-c2nc(C(=O)NCc3ccc(Cl)cc3)c3n2CCCCC3)cc1	-6.2%
O=C(Nc1cc(Cl)ccc1O)c1cc2nc(-c3ccc4c(c3)OCO4)cc(C(F)(F)F)n2n1	-4.2%
Cc1ccc(OCC(=O)Nc2ccc(C(=O)OCc3cc(=O)n4c(C)csc4n3)cc2)cc1	17.5%
CCc1ccccc1NC(=O)CSc1ncc(S(=O)(=O)c2ccccc2)c(=O)[nH]1	-1.7%
N#Cc1c(C(F)(F)F)cc(-c2ccc(F)cc2)nc1SCC(=O)Nc1ccccc1	-0.3%
CCOc1ccc(Sc2cc(C(=O)NCc3ccc(C)cc3)c3ccccc3n2)cc1	1.7%
Cc1ccc(-n2ncc(C(=O)N3CCN(c4cc(Cl)ccc4C)CC3)c2C2CCN(C(=O)OC(C)(C)C)CC2)cc1	-1.5%
O=C(NCc1ccccc1)C1CCCC1	-4.8%
CCc1ccccc1NC(=O)CCS(=O)(=O)c1cccc2nonc12	4.8%
Cc1ccc(N(Cc2cccs2)C(=O)COc2ccccc2[N+](=O)[O-])cc1	14.9%
COc1ccc(NC(=O)c2cc3c(=O)n(Cc4cccnc4)ccc3nc2C)c(OC)c1	-8.9%
Cc1ccc(Cn2c(=O)n(Cc3ccccc3Cl)c(=O)c3cccnc32)cc1	-2.8%
CCCC(=O)Nc1cc(-c2nnc3c4ccccc4c(C)nn23)ccc1C	-14.1%
CC(C(=O)N1CCCC1)N(c1ccccc1)S(C)(=O)=O (stereo not given)	-0.8%
CCCn1c(=N)c(C(=O)NC2CCCC2)cc2c(=O)n3cc(C)ccc3nc21	-2.6%
CCOC(=O)c1cccc(NC(=O)c2ccc3nc(CCc4ccccc4)oc3c2)c1	-46.0%
CCOC(=O)c1c(N)n(-c2ccc(C)c(Cl)c2)c2nc3ccccc3nc12	-3.2%
O=C1CC(c2nc(-c3ccccc3)no2)CN1c1ccc2c(c1)OCCO2 (stereo not given)	-7.9%
COc1cc(Cl)c(C)cc1NC(=O)c1nn(C)c2c1CSc1ccccc1-2	-4.9%
COc1ccc(OC)c(-n2c3c(cc(-c4nc(-c5ccc(Cl)cc5)cs4)c2=O)C(=O)CC(C)(C)C3)c1	-1.8%
CCOc1ccc(CNC(=O)c2cc(=O)[nH]c3ccc(S(=O)(=O)N4CCCCC4)cc23)cc1	-1.7%
COC(=O)c1scc(-c2ccc(C)cc2)c1S(=O)(=O)N1CCN(c2cccc(OC)c2)CC1	11.9%
Cc1ccc(Nc2cc(C)c(C#N)c3nc4ccccc4n23)cc1Cl	-3.2%
COc1ccc(NC(=O)Cn2cnc3ccc(S(=O)(=O)N4CCC(C)CC4)cc3c2=O)cc1OC	4.6%
CC1=C(C(=O)OCC2CCCCC2)C(c2c(F)cccc2Cl)CC(=O)N1 (stereo not given)	-3.1%
COc1ccc(-n2ncc(C(=O)NCc3ccccc3)c2C2CCN(C(=O)OC(C)(C)C)CC2)cc1	4.3%
CC(=O)c1cccc(NC(=O)CCS(=O)(=O)c2cc(Br)cc3c2N(C(=O)C2CC2)CC3)c1	-1.1%
O=C(CCc1nc2cccnc2n1Cc1ccccc1)NCc1cccc(Cl)c1	3.3%
COc1cccc(OCCCCn2c(-c3ccc(Cl)cc3)nc3ccccc3c2=O)c1	1.1%
COc1ccc(OC)c(CNS(=O)(=O)c2ccc3[nH]c4c(c3c2)CCCCC4)c1	7.9%
O=c1c2ccccc2nc(/C=C/c2cccc3ccccc23)n1-c1ccc(F)cc1F	18.9%
CCc1ccc(CN(Cc2ccco2)C(=O)COc2ccc(Cl)c(C)c2)cc1	5.5%
CCN(Cc1ccccc1)C(=O)c1cc2ccc3cccnc3c2[nH]1	17.9%
CCC1=Nc2cc(C(=O)NCC(C)c3ccccc3)ccc2Sc2ccc(C)cc21 (stereo not given)	?
CCOc1ccccc1NC(=O)Cn1nnc2sc(-c3ccccc3)cc2c1=O	-7.6%
O=C(CN1C(=O)C2(SCC(=O)N2c2cccc(F)c2)c2ccccc21)NCCc1ccccc1 (stereo not given)	0.8%

Shown as comma-separated lines: part of the list above.
SMILES,miR-21 reporter
CCN(CC)C(=O)CSc1nnc2ccc3ccccc3n12,-22.2%
O=C(c1ccc(CS(=O)(=O)c2c(Cl)cccc2Cl)o1)N1CCN(c2ccccc2)CC1,-1.8%
Cc1ccc(OCC(=O)Nc2ccc(C(=O)OCc3cc(=O)n4c(C)csc4n3)cc2)cc1,17.5%
CCc1ccc(OC(=O)CSc2nnc(-c3ccc4c(c3)OCO4)o2)cc1,1.7%
COc1ccccc1C(=O)Nc1cccc(C(=O)OCc2cc(=O)n3nc(C)sc3n2)c1,-13.1%
CCOC(=O)c1c(N)n(-c2ccc(C)c(Cl)c2)c2nc3ccccc3nc12,-3.2%

High-throughput results from PubChem.
